Assay outcomes: PubChem, Broad Institute
Calb FLC: C. albicans growth inhibition with fluconazole, primary screen, CaCi-2 strain, Alamar Blue fluorescence. AID 1979, 2009. actives 0.57% (n = 300,000). C. albicans CaCi-2 (fluconazole-resistant clinical isolate) + fluconazole, 48 h. growth inhibition, % (concentration not given with the values);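 active = most replicates above 75%; inconclusive = exactly half above 75%; inactive = most below 75%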;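 note: all wells also contain fluconazole at 8 µg/ml as a sub-toxic cotreatment; 0% = median of DMSO wells and 100% = median of geldanamycin control wells; wells of about 8 µL received 7.5 nL stock; the first replicate is given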
AF4-AF9 inh: inhibitors of AF4 peptide binding to AF9, primary screen, biochemical, AlphaScreen, biotin-AF4 peptide, FLAG-AF9, single point; inhibition, % at 10 µM; actives 0.47% (n = 350,000); AID 651704, 2012;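 active = every replicate reaching a set inhibition limit, whatever the replicate mean, cut at about 25% in these data; inconclusive = mean inhibition reaches that limit but some replicates miss it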;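 note: 0% = plate neutral control median and 100% = total signal loss; the record names both 10 and 1 µM as test concentration; the first replicate is given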
Target sequence (P42568 whole entry, looked up): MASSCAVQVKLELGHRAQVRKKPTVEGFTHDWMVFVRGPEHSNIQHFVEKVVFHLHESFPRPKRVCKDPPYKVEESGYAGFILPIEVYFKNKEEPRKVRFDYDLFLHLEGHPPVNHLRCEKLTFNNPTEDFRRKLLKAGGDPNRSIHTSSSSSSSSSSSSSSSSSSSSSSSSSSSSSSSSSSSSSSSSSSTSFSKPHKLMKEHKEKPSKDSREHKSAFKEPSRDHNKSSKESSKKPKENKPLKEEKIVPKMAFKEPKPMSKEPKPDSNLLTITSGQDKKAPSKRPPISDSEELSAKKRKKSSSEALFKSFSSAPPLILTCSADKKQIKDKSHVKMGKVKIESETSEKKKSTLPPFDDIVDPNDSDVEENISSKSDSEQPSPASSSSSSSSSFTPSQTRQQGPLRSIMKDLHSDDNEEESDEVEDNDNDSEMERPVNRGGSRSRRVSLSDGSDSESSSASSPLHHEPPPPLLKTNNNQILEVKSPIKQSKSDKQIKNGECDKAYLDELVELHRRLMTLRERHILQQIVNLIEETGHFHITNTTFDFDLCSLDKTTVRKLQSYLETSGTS
FGF22 binding: binders of human FGF22 protein, primary screen, FGF22 synaptogenesis inhibitor project, biophysical, thermal shift, single point | Fibroblast growth factor 22 (Homo sapiens), Q9HCT0 | recombinant FGF22 thermal shift, SYPRO orange fluorescence; percent of sucrose octasulfate shift, DMSO zero | calls only at 9.99 µM | actives 1.5% (n = 340,000) | AID 651658, 2012;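 active = melting point raised past a set limit in the mean and every replicate; inconclusive = no clear call; three in four hits are not shown here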
Target sequence (Q9HCT0 whole entry, looked up): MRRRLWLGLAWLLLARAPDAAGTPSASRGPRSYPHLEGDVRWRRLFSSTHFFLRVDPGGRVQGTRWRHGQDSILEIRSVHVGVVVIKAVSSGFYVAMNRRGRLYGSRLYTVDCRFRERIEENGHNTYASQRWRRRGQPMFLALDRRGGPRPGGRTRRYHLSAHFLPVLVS
Beta apoptosis: inhibitors of cytokine-induced beta cell apoptosis, primary screen, luminescence; AID 435005, 2010; protection from apoptosis, % (concentration not given with the values); INS-1E cytokine-induced death, ATP luminescence, 48 h; percent of positive-control rescue, neutral wells zero; actives 0.8% (n = 300,000);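 active = all replicates at 75% or more, or half of them and the mean; inconclusive = half reach 75% but not the mean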;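 note: 0% = cytokine-treated negative control wells and 100% = positive control rescue; higher means more ATP so stronger rescue from cytokine killing; wells of about 40 µL received 100 nL stock; the first replicate is given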
Ecoli rRNA inh: reduced GFP signal of wild-type E. coli, primary screen, bacterial rRNA inhibitor project, GFP/RFP fluorescence, OD600, single point | actives 1.6% (n = 350,000) | AID 720706, 2013 | GFP signal change (wild-type ribosome), % (test concentration not listed) | E. coli WT GFP vs humanized-ribosome RFP mutants, 24 h; active compounds read low; DMSO median 0, no signal -100;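 active = significant combined selectivity score with lowered wild-type GFP, culture density cut under 30%, mutant RFP and density less affected; inactive = any of these conditions unmet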; note: one replicate is shown; some compounds called inactive have numbers as strong as hits
RanGTP-Impb inh: inhibitors of RanGTP-importin-beta interaction, primary screen, biochemical, FRET, CFP-Ran, YFP-importin-beta, homogeneous; cell-free CFP-Ran/YFP-importin-beta FRET ratio; actives 1.1% (n = 300,000); inhibition, % (no concentration beside the values); AID 2216, 2009;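 active = most replicates above 15%; inconclusive = exactly half above 15%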;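 note: 0% = DMSO wells and 100% = Ran loaded with GDP instead of GTP; wells of about 40 µL received 100 nL stock; the first replicate is given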
ALR inh: inhibitors of human ALR sulfhydryl oxidase, primary screen, biochemical, H2O2 detection, HRP-luminol luminescence, single point | inhibition, % (concentration not given with the values) | actives 3.8% (n = 290,000) | purified ALR, DTT oxidation | FAD-linked sulfhydryl oxidase ALR (Homo sapiens), P55789 | AID 485317, 2010;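 active = mean and each replicate at 75% or more; inconclusive = only one of the two met; inactive = neither met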;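 note: stock transfer was 7.5 nL into about 7.5 µL; 0% = neutral wells and 100% = wells with inactivated enzyme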
Target sequence (P55789 whole entry, looked up): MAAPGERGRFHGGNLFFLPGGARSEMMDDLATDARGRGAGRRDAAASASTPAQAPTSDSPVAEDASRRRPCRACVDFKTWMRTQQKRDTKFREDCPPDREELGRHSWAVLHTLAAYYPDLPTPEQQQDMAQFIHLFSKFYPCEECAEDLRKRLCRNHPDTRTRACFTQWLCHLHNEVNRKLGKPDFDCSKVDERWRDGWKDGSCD
T cruzi repl: inhibitors of intracellular T. cruzi growth, primary screen, luminescence, NIH3T3 host cells. inhibition, % (no concentration beside the values). actives 1.4% (n = 300,000). T. cruzi beta-gal in NIH3T3, 90 h;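 active = mean inhibition across valid replicates above about 55%, limit read from the data; inconclusive = mean below that limit but half or more replicates reach it; inactive = mean below it, under half of replicates reach it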;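 note: signal also drops with host cell toxicity which is not excluded here; 0% = plate median of DMSO wells and 100% = zero luminescence signal; higher percent means less beta-gal luminescence so fewer parasites; stock transfer was 50 nL into about 50 µL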
Ecoli rRNA inh OD600: second read-out of Ecoli rRNA inh, no call of its own (marks repeat the call); OD600 change, %; measured here: OD600 growth;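 optical density of the mix in the first replicate; 0 = DMSO median and -100 = no signal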
Ecoli rRNA inh RFP: also measured in Ecoli rRNA inh; calls as there; RFP signal change, %; measured here: RFP humanized mutant strains;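 first replicate; 0 = DMSO median and -100 = no signal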
The depositor's hits bear a star; i = inactive; ? = inconclusive; / = no result given.

SMILES | Calb FLC | AF4-AF9 inh | FGF22 binding | Beta apoptosis | Ecoli rRNA inh | Ecoli rRNA inh OD600 | Ecoli rRNA inh RFP | RanGTP-Impb inh | ALR inh | T cruzi repl
COc1ccc2nc(/N=C(\N)NC(=O)C(C)(C)C)nc(C)c2c1 | -1 | / | / | -1 | / | / | / | 12 | -1 | 24
O=C(N/N=C1/CCS(=O)(=O)c2ccc(F)cc21)c1cccnc1 | -7 | -1.7 | i | 2 | 4 | 6 | 0.3 | -1.7 | -3 | -2
CC1=C(/C=C/C(C)=C/C=C/C(C)=C/C(=O)Nc2ccc(O)cc2)C(C)(C)CCC1 | / | 17 | i | -1 | 9 | 3 | 0.8 | / | 11 | /
COc1ccccc1NCc1nnc(SCC(=O)N/N=C/c2ccco2)n1-c1ccc(Cl)cc1Cl | 3 | / | / | -1 | / | / | / | 4.8 | 9 | -8
O=C(C(=O)N1CCN(c2ccc(F)cc2)CC1)N1CCCCC1 | -5 | 1.2 | i | -1 | 3 | 13 | 0.9 | ? | 3 | -2
Cc1cc2ncn(/N=C/c3ccc([N+](=O)[O-])o3)c2cc1C | -4 | -7.7 | i | 50 | 17 | 4 | -0.1 | -10 | -4 | 60*
Cc1ccccc1OCC(=O)NCCCNC(=O)c1ccccn1 | 4 | -2.0 | i | / | 0 | 0 | 1.2 | -0.9 | -12 | 12
CC(=O)OCC1=C(C(=O)O)N2C(=O)C(NC(=O)C(C)Cn3cc(Cl)cn3)C2SC1 (centres undefined) | -13 | -9.7 | i | -7 | 46 | 29 | 3.3 | 5.7 | -9 | -10
Cc1cc(C)nc(NS(=O)(=O)c2ccc(N=NN(C)C)cc2)n1 | -9 | -2.9 | i | -9 | 9 | 8 | -7.8 | 6.3 | -4 | -6
O=C(O)CC1S/C(=N/N=C/c2ccccn2)NC1=O (centres undefined) | 21 | -15 | i | -6 | -9 | 18 | 4.8 | ? | -2 | 1
O=C(CC1Sc2ccccc2NC1=O)NCc1cccc(Cl)c1 (centres undefined) | 25 | -0.6 | i | 1 | 9 | 1 | 1.1 | 2.4 | -28 | -15
COC(=O)COc1ccc(C(C2C(=O)CC(C)(C)CC2=O)C2C(=O)CC(C)(C)CC2=O)cc1 | -11 | -2.7 | i | -4 | 8 | 1 | -0.7 | 0.3 | / | -1
C=C(C)CN1CCN(c2c(CCC#N)c(C)c(C#N)c3nc4ccccc4n23)CC1 | -9 | / | / | 1 | / | / | / | 3.6 | -16 | -6
NS(=O)(=O)c1ccc(CCNC(=O)c2ccc(C#CC3(O)CCCCC3)cc2)cc1 | 31 | -6.0 | i | 5 | -13 | -21 | -4.2 | ? | -10 | -14
CCOc1ccc(CNC(=O)Cn2ccc3cc(S(=O)(=O)N4CCCC4)ccc32)cc1 | -3 | -1.7 | i | -1 | 5 | 15 | 0.8 | 3.0 | -10 | 10
CCOc1ccc(NC(=O)Cn2c(=O)n(CC3CCCO3)c(=O)c3ccccc32)cc1 (centres undefined) | -3 | -0.9 | i | -4 | 10 | 0 | -1.6 | 0.5 | -32 | -4
Cc1ccc(S(=O)(=O)N2CCOCC2)cc1NC(=O)CNC1CCCC1 | -3 | -1.4 | i | -4 | 11 | 4 | 1.2 | -2.9 | -4 | -1
COc1cc2[nH]c3c(Cl)ncnc3c2cc1OC | 4 | / | / | -15 | / | / | / | 1.2 | -8 | 0
CC[N+](C)(C)CCN(Cc1ccc(Cl)cc1)c1ccccn1 | -8 | / | / | -2 | / | / | / | 1.3 | / | 2
O=C1NC[C@H](c2ccccc2)OC(=O)[C@@H](Cc2ccc(F)cc2)CC/C=C/C[C@@H]1CC(=O)N(CCO)Cc1ccccc1 | / | 1.4 | i | 0 | -20 | -18 | -11 | / | -8 | /
CCS(=O)(=O)N1CCN=C1SCc1cccc(F)c1 | 4 | -9.4 | i | 0 | 7 | 4 | 2.4 | 3.7 | 48 | -12
C=CC[C@@H](CC(=O)N(CCO)Cc1ccccc1)C(=O)NC[C@H](OC(=O)[C@@H](CC=C)Cc1ccc(F)cc1)c1ccccc1 | / | 0.0 | i | 4 | -5 | -11 | -6.7 | / | -2 | /
CCN(CC)c1ccc(/C=N/NC(=O)CNC(=O)c2cccs2)cc1 | 5 | 6.0 | i | -4 | 4 | 10 | 2.5 | 1.3 | 56 | 6
COc1ccc(/C=N/NC(=O)c2nc(-c3ccccc3)cc(-c3ccccc3)n2)cc1 | 20 | / | / | 8 | / | / | / | -2.5 | -10 | 16
COc1ccc(C(=O)N/C(=C\c2ccc3c(c2)OCO3)C(=O)N2CCOCC2)cc1 | -9 | -1.9 | i | / | 5 | 9 | 0.9 | -0.2 | -18 | -1
Cc1ccc(C(=O)N2CCN(Cc3ccc4c(c3)OCO4)CC2)cc1C | -61 | 2.3 | i | -1 | -10 | -14 | 1.4 | 2.1 | -12 | 21
CCOC(=O)c1c(C(=O)OCC)c(C)n(Cc2cc(OC)c(OC)c(OC)c2)c1C | -8 | 6.8 | i | -2 | -3 | 6 | -6.7 | 5.3 | / | -5
Cc1cccc(NC(NC(=O)c2ccccn2)C(Cl)(Cl)Cl)c1 (centres undefined) | -1 | 2.2 | i | -9 | -6 | -1 | -3.2 | -0.7 | 8 | 0
Cc1ccc(N=C2C(=O)Nc3ccccc32)cc1C | -23 | 0.4 | i | -11 | 0 | -2 | 0.4 | 2.1 | -8 | -6
CCCNC(=O)COC(=O)c1ccc(Cl)c(S(=O)(=O)N2CCCC2)c1 | 3 | / | / | -6 | / | / | / | -3.0 | -1 | -5
COc1ccc(NC(=O)c2ccc(S(=O)(=O)N(C)C)cc2)cc1OC | 4 | / | / | 0 | / | / | / | 1.8 | -8 | /
Cc1cc(C(=O)OCC(=O)c2ccc3c(c2)OCCO3)c(C)o1 | -13 | / | / | 0 | / | / | / | -3.8 | 5 | -4
COc1ccc2c(CC(=O)OCC(=O)Nc3sc4c(c3C#N)CCC(C)C4)coc2c1 (centres undefined) | 15 | -0.2 | i | -1 | 4 | 7 | -1.6 | -1.6 | -1 | -15
CC(OC(=O)/C=C/c1ccco1)C(=O)Nc1cccc([N+](=O)[O-])c1 (centres undefined) | -30 | 0.1 | i | / | / | / | / | 2.6 | -1 | -15
Cc1ccc(SCC(=O)Nc2ccc3c(c2)C(=O)N(C)C3=O)cc1 | 52 | 0.4 | i | -3 | -2 | 3 | -0.6 | 2.9 | -2 | -18
CCOC(=O)C1(Cc2ccccc2C)CCCN(C(=O)c2ccc(COC)o2)C1 (centres undefined) | -2 | 0.2 | i | -9 | -9 | -11 | -1.0 | -3.1 | -2 | -8
Cc1ccc(S(=O)(=O)NCCC(=O)Nc2nnc(C3CC3)s2)cc1C | -14 | / | / | 0 | / | / | / | 3.6 | -7 | 6
CCSc1nnc2ccc(-c3ccc(OC)c(OC)c3)nn12 | -2 | -11 | i | 2 | -1 | -5 | -4.0 | 2.8 | -4 | -4
NC(=O)CC(NC(=O)Cc1cccc2ccccc12)c1ccc(N2CCc3ccccc3C2)c([N+](=O)[O-])c1 (centres undefined) | -3 | -1.6 | i | -9 | -1 | 1 | 10 | -2.4 | 3 | 4
COc1ccccc1CN1C(=O)C2CC=CCC2C1=O (centres undefined) | 7 | / | / | -2 | / | / | / | 1.8 | -10 | -3
O=C(Nc1csnn1)c1csnn1 | 3 | -0.3 | i | 1 | 12 | 0 | -1.7 | -0.9 | -9 | -9
CC(C1CC1)N(Cc1ccccc1)C(=S)Nc1ccccc1 (centres undefined) | 7 | -2.7 | i | -13 | -14 | -9 | 0.9 | -0.3 | 1 | -42
Cc1ccccc1NC(=S)NCCO | 12 | -0.3 | i | -5 | / | / | / | -1.9 | -11 | -19
COC(=O)[C@@]12CCCN1[C@H](c1ccc(-c3ccc(F)cc3)cc1)[C@H]1C(=O)N(C)C(=O)[C@H]12 | 6 | 5.2 | i | 0 | -3 | -1 | -2.2 | -0.4 | -1 | -17
NC(=O)CC(NC(=O)Cc1cccc2ccccc12)c1ccc(NCc2ccc(F)c(F)c2)c([N+](=O)[O-])c1 (centres undefined) | 13 | 1.0 | i | -3 | 5 | 12 | 2.6 | -4.9 | -1 | 4
Cc1cc(C)c(NC(=O)CNC(=O)c2ccc(-n3cncn3)c([N+](=O)[O-])c2)c(C)c1 | -1 | 0.0 | i | 9 | -4 | 2 | -0.5 | ? | -124 | 1
Cc1nn(CC(=O)NCCc2ccccc2)c(C)c1[N+](=O)[O-] | -14 | -14 | i | -12 | 3 | 16 | -0.7 | 0.6 | / | -6
CCC(CO)Oc1cc(NC(=O)c2ccc(N)cc2)c2ncn(C(C)C)c2c1 (centres undefined) | / | 3.8 | i | 3 | -20* | 5.0* | -2.9* | / | 32 | /

Sorted by length of the SMILES (lowest first): part of the list above
SMILES | Calb FLC | AF4-AF9 inh | FGF22 binding | Beta apoptosis | Ecoli rRNA inh | Ecoli rRNA inh OD600 | Ecoli rRNA inh RFP | RanGTP-Impb inh | ALR inh | T cruzi repl
Cc1ccccc1NC(=S)NCCO | 12 | -0.3 | i | -5 | / | / | / | -1.9 | -11 | -19
O=C(Nc1csnn1)c1csnn1 | 3 | -0.3 | i | 1 | 12 | 0 | -1.7 | -0.9 | -9 | -9
COc1ccccc1CN1C(=O)C2CC=CCC2C1=O (centres undefined) | 7 | / | / | -2 | / | / | / | 1.8 | -10 | -3
CC(C1CC1)N(Cc1ccccc1)C(=S)Nc1ccccc1 (centres undefined) | 7 | -2.7 | i | -13 | -14 | -9 | 0.9 | -0.3 | 1 | -42
CCC(CO)Oc1cc(NC(=O)c2ccc(N)cc2)c2ncn(C(C)C)c2c1 (centres undefined) | / | 3.8 | i | 3 | -20* | 5.0* | -2.9* | / | 32 | /
Cc1cc(C)c(NC(=O)CNC(=O)c2ccc(-n3cncn3)c([N+](=O)[O-])c2)c(C)c1 | -1 | 0.0 | i | 9 | -4 | 2 | -0.5 | ? | -124 | 1
NC(=O)CC(NC(=O)Cc1cccc2ccccc12)c1ccc(N2CCc3ccccc3C2)c([N+](=O)[O-])c1 (centres undefined) | -3 | -1.6 | i | -9 | -1 | 1 | 10 | -2.4 | 3 | 4
NC(=O)CC(NC(=O)Cc1cccc2ccccc12)c1ccc(NCc2ccc(F)c(F)c2)c([N+](=O)[O-])c1 (centres undefined) | 13 | 1.0 | i | -3 | 5 | 12 | 2.6 | -4.9 | -1 | 4

Some of the compounds tested. The share of hits here may be higher or lower than overall.
